# Bst PK mod = modulators of Bacillus stearothermophilus pyruvate kinase; partly purified Bacillus stearothermophilus pyruvate kinase, luminescence ATP production; ribose 5-phosphate activator present at AC10; Potency, µM; 1.2% of 51,000 active; AID 361; in the data active means potency below about 11 µM; inconclusive means mostly about 12 µM to 25 µM; inactive means weaker than that;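 the screen sought inhibitors and activators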;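 also: potency is read from the fitted curve at half-maximal effect; scaled between full activation by ribose 5 phosphate and full inhibition by luteolin; about four in five hits inhibit and the cells do not say which; series up to 57 µM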
# YjeE inh = displaces an ADP probe from E. coli YjeE (TsaE) | P0AF67 | purified YjeE, fluorescence polarisation of a bound ADP probe | Potency, µM | 0.05% of 71,000 active; active = well fitted falling curve; inconclusive = weaker or top-dose-only fall, or a rising curve; inactive = flat or poorly fitted curve;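 also: top concentration of the series not given in the record; excess ADP was the control for the full effect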
#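 Fluorescence polarization of a BODIPY Texas Red–ADP probe (2 uM) bound to purified YjeE (10 uM) was read after 15 min room-temperature incubation with compounds. Loss of polarization marks inhibitors; ADP serves as titrated control.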
# An asterisk follows results filed as active; i = inactive; . = no result given. This is a subset; count on the stated rates, not on these rows.
# Order of results: Bst PK mod, YjeE inh
> Oc1c(C(c2cccs2)N2CCC3(CC2)OCCO3)sc2ncnn12 (stereo not drawn)
  ., i
> Cc1nn(CCC#N)c2nc(C(F)(F)F)[nH]c(=O)c12
  >57, i
> CN(C)c1ncc2nc(-c3cc(F)cc(F)c3)c(=O)n(C)c2n1
  ., i
> CCOC(=O)C1CCN(S(=O)(=O)c2cccc(-c3csc(C)n3)c2)CC1
  >57, i
> CCOC(=O)C1CCN(C(=O)Cc2c(F)cccc2Cl)CC1
  >57, i
> Cc1ccc(-c2nn3c(C)nnc3s2)cc1NC(=O)COc1ccc(Cl)cc1
  ., i
> Cc1n[nH]c(=O)[nH]c1=O
  ., i
> CC(=O)NC(Cc1ccccc1)C(=O)N1CCN(C(=O)c2cccs2)CC1 (stereo not drawn)
  >57, i
> CCOc1ccc2[nH]c(=O)c(CN(CC3COCCO3)C(=O)C3CC3)cc2c1 (stereo not drawn)
  >57, i
> c1ccc(CCN2CN(CCCN3CCOCC3)c3nc4ccccc4n3C2)cc1
  >57, i
> COc1ccc(C(c2nnnn2Cc2ccccc2)N2CCN(c3nc4ccccc4s3)CC2)cc1 (stereo not drawn)
  >57, i
> CCOc1cccc2cc(-c3nnc(-c4ccccc4)o3)c(=O)oc12
  ., i
> O=C(Nc1ccccc1C(=O)NCc1ccco1)c1ccccc1
  ., i
> C=CCc1cccc2cc(C(=O)OCC)c(=O)oc12
  ., i
> COc1ccc2c(c1)CCc1c-2n[nH]c1C(=O)O
  ., i

# The list goes on:
# Order of results: Bst PK mod, YjeE inh
> CN1CCCN(Cc2ccccc2C(F)(F)F)CC1
  ., i
> O=C(NCC1COc2ccccc2O1)Nc1ccccc1F (stereo not drawn)
  >57, i
> CCOC(=O)N1CCN(C(=O)C2CCCN(c3ncnc4c3sc3cccc(F)c34)C2)CC1 (stereo not drawn)
  ., i
> Cn1cccc1Cc1nnc(SCC(=O)N2CCOCC2)n1-c1ccc(F)cc1
  ., i
> Cc1nc(-c2ccccc2)sc1C(N)=O
  ., i
> CCSc1nc2c(c(=O)[nH]c(=O)n2C)n1CC(O)COc1ccccc1C (stereo not drawn)
  >57, i
> Clc1ccc(-c2noc(CN3CCCCC3)n2)cc1
  ., i
> COC(=O)CN(c1ccc(OC)c(OC)c1)S(C)(=O)=O
  >57, i
> COc1cc(C2NC(=O)c3ccccc3O2)cc(OC)c1OC (stereo not drawn)
  >57, i
> CC(=O)N=c1sc(S(N)(=O)=O)nn1C
  >11.4, i
> CCOC(=O)c1ccc(NC(=O)COc2ccccc2OC)cc1
  >25.6, .
> Cc1ccc(NC(=O)Cn2cc3c(n2)CCC(C)C3)cc1 (stereo not drawn)
  ., i
> CC(C)(C)C(=O)C(CO)(Oc1ccc(Cl)cc1)n1cncn1 (stereo not drawn)
  >57, i
> CCOC(=O)N1CCC(N2Cc3cccc(C(=O)NCc4ccc5c(c4)OCO5)c3C2=O)CC1
  >57, i
> CCCCOc1ccc(S(=O)(=O)n2c(C)nc3ccccc32)cc1
  ., i

# Next part.
# Order of results: Bst PK mod, YjeE inh
> O=C1c2sc3nc4ccccc4n3c2C(=O)N1c1ccccc1Cl
  ., i
> COc1cccc(OC)c1OCCCc1c(C)n[nH]c1C
  >57, i
> Cc1ccc(OCC(=O)NCc2ccccn2)cc1
  >57, i
> Cc1ccc(-c2noc(CCC(=O)NCCN3CCOCC3)n2)cc1
  >57, i
> O=C(O)c1cc2cccc(S(=O)(=O)N3CCOCC3)c2cc1O
  >25.6, .
> CC(=O)Nc1cc(N2C(=O)CCC2=O)ccc1Cl
  ., i
> CCOC(=O)c1ccc(Oc2nc(NC)nc(SC)n2)cc1
  >57, i
> COc1ccc2nc(NC(=O)CSc3nc4ccccc4o3)sc2c1
  >57, i
> CC(C)N1C(=O)CCC1C(=O)NCCc1ccc(Cl)cc1 (stereo not drawn)
  ., i
> CC1CNCCN1S(=O)(=O)c1cccc2cnccc12 (stereo not drawn)
  >25.6, .
> CC(C)(C)c1nc(SCC(=O)NCc2ccco2)c2ccccc2n1
  >57, i
> O=C1CCCN1c1ccc(S(=O)(=O)N2CCC(c3ccccc3)CC2)cc1
  >57, i
> COc1ccccc1-c1c(C)nn2c(NCCN3CCCC3)cc(C)nc12
  ., i
> Cc1ccc(OCC(=O)Nc2ccc(N3CCOCC3)cc2)cc1
  ., i
> CN=C(Nc1cc(C)nn1CCC#N)c1ccccc1
  >57, i

# Entries of single compounds as entered above. Order of screens: Bst PK mod | YjeE inh
# O=C(O)c1cc2cccc(S(=O)(=O)N3CCOCC3)c2cc1O is listed as >25.6 | .
# CN=C(Nc1cc(C)nn1CCC#N)c1ccccc1 is listed as >57 | i
# O=C1c2sc3nc4ccccc4n3c2C(=O)N1c1ccccc1Cl is listed as . | i
# CC(=O)Nc1cc(N2C(=O)CCC2=O)ccc1Cl is listed as . | i

# Next results follow.
# Order of results: Bst PK mod, YjeE inh
> Cc1cc(C)c(C#N)c(SCC(=O)CC(=O)OC(C)C)n1
  >57, i
> O=C(c1ccncc1)N1CCC[C@@]2(CCN(Cc3cc(C(F)(F)F)cc(C(F)(F)F)c3)C2)C1
  ., i
> Cc1nc2sc3c(c2c(=O)n1/N=C/c1ccco1)CCCC3
  >57, i
> Clc1ccc(-c2nnc3sc(Cc4cccs4)nn23)c(Cl)c1
  9.46*, .
> CC(=O)c1cc(-c2ccccc2)[nH]c1N1CCCC1
  >57, i
> O=C(NCCc1ccccc1)C1CCN(S(=O)(=O)N2CCCC2)CC1
  >57, i
> CC(C)CCN1CC(C(=O)N2CCN(c3ccc(F)cc3)CC2)CC1=O (stereo not drawn)
  >57, i
> CCCSc1nc(O)c(C2OC(=O)c3c2ccc(OC)c3OC)c(=O)n1C (stereo not drawn)
  >11.4, .
> O=C1C2CCCN2C(c2cccc(Br)c2)N1c1ccc(F)cc1 (stereo not drawn)
  ., i
> CCOC(=O)N1CCN(c2c(-c3ccc(C(C)C)cc3)c(=O)c2=O)CC1
  >57, i
> CC(C)Cc1nc(N2CCC(C(N)=O)CC2)c2nnn(Cc3ccccc3)c2n1
  >57, i
> CC(=O)Nn1cnc2c(c1=O)C1(CCCC1)Cc1ccccc1-2
  >11.4, .
> Cc1c(O)c(CN2CCCC(C)C2)cc2c3c(c(=O)oc12)CCC3 (stereo not drawn)
  >25.6, .
> CCC(=O)c1ccc(OC(=O)c2ccc(Br)o2)cc1
  >57, i
> CN1CCN(C(=O)CN2C(=O)CC(C)(C)S(=O)(=O)c3ccccc32)CC1
  >57, i

# Additional records follow.
# Order of results: Bst PK mod, YjeE inh
> COc1ccc(NC(=O)c2ccc(=O)oc2)cc1
  >57, i
> Cn1c(=O)c(=O)n(C)c2cc(S(=O)(=O)N3CCN(Cc4ccccc4)CC3)ccc21
  >57, i
> CC1(C)NC(=O)NC2(C)NC(=O)NC(C)(C)C12 (stereo not drawn)
  >57, i
> O=C(O)C1CC(=O)N(CCOc2ccccc2)C1 (stereo not drawn)
  ., i
> COC(=O)CN(c1ccc(C(C)C)cc1)S(=O)(=O)c1c(C)[nH]c(=O)[nH]c1=O
  ., i
> CCCn1c(SCC(=O)Nc2nnc(C(C)C)s2)nc2c1c(=O)n(C)c(=O)n2C
  >57, i
> CC/C=C/C#N
  ., i
> CC1(C)C2CCC1(CS(=O)(=O)NCc1ccc(C(=O)O)cc1)C(=O)C2 (stereo not drawn)
  >57, i
> CCN(CC)CCCN1C(=O)C(O)=C(C(=O)c2ccc(C)o2)C1c1ccco1 (stereo not drawn)
  >57, i
> CCOC(=O)c1[nH]c(C)c(CN(CCc2ccccc2)C(=O)CCC(=O)O)c1C
  >57, i
> O=C(NCc1ccc2c(c1)OCO2)c1cc2ncc(Br)cn2n1
  >57, i
> Cc1nc(N2CCOCC2)c2nc(-c3ccccc3)n(CCN(C)C)c2n1
  ., i
> CCN(CC)C(=O)C1CCCN(Cc2ccccc2C(F)(F)F)C1 (stereo not drawn)
  ., i
> COc1ccc(Nc2nc(N3CCCC3)nc3ccccc23)c(OC)c1
  >57, i
> Cc1cccc(C(=O)Nc2ccc(O)cc2)c1
  >57, i

# Structures listed so far with bromine:
# Order of results: Bst PK mod, YjeE inh
> O=C1C2CCCN2C(c2cccc(Br)c2)N1c1ccc(F)cc1 (stereo not drawn)
  ., i
> CCC(=O)c1ccc(OC(=O)c2ccc(Br)o2)cc1
  >57, i
> O=C(NCc1ccc2c(c1)OCO2)c1cc2ncc(Br)cn2n1
  >57, i

# Further entries:
# Order of results: Bst PK mod, YjeE inh
> CCN(CC)S(=O)(=O)c1ccc(C(=O)NCC(c2cccs2)N2CCOCC2)cc1 (stereo not drawn)
  >57, i
> Nc1ccc(S(=O)(=O)Nc2ccnn2-c2ccccc2)cc1
  ., i
> Cc1nc2cc(-c3cccc(Cl)c3)nn2c(N2CCN(C(=O)c3ccco3)CC2)c1C
  >57, i
> COC(=O)[C@H]1[C@H]2C[C@H]3c4[nH]c5ccccc5c4CCN3C[C@@H]2CC[C@@H]1O
  ., i
> CN1CCN(c2ccc(NC(=O)c3ccc4c(c3)OCO4)cc2)CC1
  ., i
> CCc1nnc(NC(=O)CSc2nc3c(cc2C#N)CCCC3)s1
  ., i
> CCc1c(C)nc(SCCOc2ccc(OC)cc2)[nH]c1=O
  ., i
> Fc1ccc(-c2nnc(-c3ccc(Cl)cc3Cl)o2)cc1
  ., i
> Cn1c(=O)c2c(nc(NCCO)n2C)n(C)c1=O
  >57, i
> Cc1oc(-c2ccccc2F)nc1CS(=O)(=O)CC(=O)N1CCN(Cc2ccccc2)CC1
  ., i
> Cc1noc(C)c1-c1ccc2ncnc(NCc3ccccc3)c2c1
  ., i
> COc1ccc(-c2nnc(SCc3cccc(C#N)c3)o2)cc1
  >57, i
> CN1CCN(c2nc(-c3ccc(N(C)C)cc3)nc3ccccc23)CC1
  ., i
> COc1ccc(OC)c(S(=O)(=O)n2nc(-c3ccccc3)cc2N)c1
  ., i
> O=C(O)CCCCCNC(=O)CCn1nnc2ccccc2c1=O
  >57, i

# The results go on:
# Order of results: Bst PK mod, YjeE inh
> CCOC(=O)c1ccccc1NC(=O)c1ccc2c(=O)n3c(nc2c1)CCCCC3
  ., i
> COCCn1c(=S)[nH]c2cc(C(=O)NCC3CCCO3)ccc2c1=O (stereo not drawn)
  >57, i
> CCC(C)C(NC(=O)c1ccccc1NC(=O)c1ccco1)C(=O)NC1CCCCC1 (stereo not drawn)
  ., i
> O=C(Nc1cccc(Oc2c(F)c(F)c(F)c(F)c2F)c1)N1C[C@@H]2C[C@@H](C1)c1cccc(=O)n1C2
  >57, i
> COCCNC(=O)c1cn(C)c2ccc(S(=O)(=O)N(C)C3CCCCC3)cc2c1=O
  ., i
> C=CCn1c(Cc2ccc(OC)cc2)nnc1SCc1nc2ccccc2c(=O)[nH]1
  >57, i
> Cc1sc(N)c(C(=O)c2cccc(C(F)(F)F)c2)c1C
  ., i
> COCC(=O)c1[nH]c2ccccc2c1C
  >57, i
> CCOC(=O)c1c(COc2ccccc2)oc2ccc(O)cc12
  ., i
> CC(C)(C)NC(=O)CSc1nncn1-c1ccccc1
  >57, i
> COc1ccc(CNC(=O)C2CCN(C(=O)[C@@H](CC(C)C)NC(=O)OC(C)(C)C)CC2)cc1
  >57, i
> CCSc1nnc(NC(=O)C2CCCCC2)s1
  >57, i
> COc1ccc(NC(=O)Cn2c(=O)sc3ccccc32)c(OC)c1
  ., i
> CC(=O)Cc1ccccc1OC(=O)c1ccco1
  >57, i
> COCCn1c(=O)c(-c2cccs2)nc2cnc(Nc3ccccc3)nc21
  ., i

# (next part)
# Order of results: Bst PK mod, YjeE inh
> O=C(NCc1cccs1)c1cc(-c2ccccc2)on1
  >57, i
> CCC/C=C(\CCC)C(NP(=O)(c1ccccc1)c1ccccc1)c1ccc(-c2ccccc2)cc1 (stereo not drawn)
  ., i
> COC(=O)c1ccccc1NC1OC(=O)c2ccccc21 (stereo not drawn)
  >57, i
> CCN(CC)CCCN1C(=O)C(=O)/C(=C(/O)c2cnn(-c3ccccc3)c2C)C1c1ccncc1 (stereo not drawn)
  >57, i
> COC(=O)[C@H]1C[C@@H]1[C@H](NC(=O)Oc1ccc(F)cc1)c1ccccc1
  ., i
> O=C(O)c1cncc(C(=O)O)c1
  ., i
> Fc1ccc(C2CC(c3ccco3)n3ncnc3N2)cc1 (stereo not drawn)
  ., i
> CC[C@H](CO)NCCN[C@@H](CC)CO
  ., i
> CNC(=O)c1c(N)sc2c1CCCCC2
  ., i
> COc1cccc(N(CC(=O)Nc2cccc(C(C)=O)c2)S(C)(=O)=O)c1
  ., i
> CCCCOc1ccccc1NC(=O)C=C(C)C
  >57, i
> O=C(CCC(=O)c1ccc[nH]1)c1ccc(Cl)cc1
  >57, i
> COC(=O)NC(Nc1sc2c(c1C(N)=O)CCCC2)(C(=O)OC)C(F)(F)F (stereo not drawn)
  >25.6, .
> CCc1c(C)c2cc(Cl)c(O)c(CN3CCCCC3)c2oc1=O
  >25.6, .
> CCOC(=O)C(C)Sc1nnc(-c2ccccc2O)n1Cc1ccccc1 (stereo not drawn)
  >57, i

# (listing goes on)
# Order of results: Bst PK mod, YjeE inh
> Clc1ccc(OCCn2ccnc2)c(Cl)c1
  ., i
> O=C(CC1CCS(=O)(=O)C1)NC1CCCCC1 (stereo not drawn)
  >57, i
> Cc1cc2cc(CNC(=O)c3ccc4c(c3)OCO4)ccc2[nH]1
  >57, i
> O=c1cc(CN2CCN(CCO)CC2)c2cc3c(cc2o1)CCC3
  >57, i
> O=S(=O)(c1cccc2cccnc12)N(CCO)CCO
  ., i
> Cc1ccc(S(=O)(=O)N2CCCC(C(=O)NC3=NCCS3)C2)cc1 (stereo not drawn)
  6.31*, i
> CC1(C)C2CCC13CS(=O)(=O)N[C@@H]3C2 (stereo partly drawn)
  >57, i
> c1ccc(Cn2nnc3c(NCCN4CCOCC4)ncnc32)cc1
  >57, i
> O=C(CN1C(=O)CSC1=O)N1CCc2ccccc2C1
  >57, i
